From PubChem
LANA-H2B inh – blockers of LANA interaction with H2A/H2B – biochemical, FP readout, HTS, primary screen. Protein LANA1 (Human herpesvirus 8 type P (isolate GK18)), Q9QR71. cell-free LANA-H2A/H2B peptide, fluorescence polarization. inhibition, % (test concentration not listed). hit rate 0.6% among 320,000. AID 2629, 2010; in the data active = inhibition mostly above about 10%, no sharp cut-off; inactive = mostly below about 6.7%;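 also: stock transfer was 7.5 nL into about 10 µL; 0% = median of vehicle wells and 100% = median of positive control wells; one replicate is shown; the record names a cut of 25% in any replicate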
Ecoli growth – E. coli growth inhibition, primary screen, OD600. Escherichia coli growth, 23 h; hits give low values. OD600 absorbance (no concentration beside the values). hit rate 0.21% among 330,000. AID 1053175, 2014;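 active = OD600 absorbance below the run mean of sample wells minus 3.6 SD, in any replicate, cut at about 0.56 in these data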;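 also: stock transfer was 300 nL into about 60 µL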
HNF4A DNA FP – change in binding of human HNF4A to DNA, primary screen, biochemical, fluorescence polarization, FITC-DNA; hit rate 0.3% among 360,000; AID 1224865, 2016; 1 h; activity change, % at 10 µM; in the data active = activity change above about 30%, passing the limit was not always enough;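 also: controls were the assay level and a saturating level of protein; the project sought stronger binding though the title names inhibitors; some compounds called inactive have numbers as strong as hits; positive values seem to mean higher polarization but the record does not say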
Target sequence (P41235 whole entry, looked up): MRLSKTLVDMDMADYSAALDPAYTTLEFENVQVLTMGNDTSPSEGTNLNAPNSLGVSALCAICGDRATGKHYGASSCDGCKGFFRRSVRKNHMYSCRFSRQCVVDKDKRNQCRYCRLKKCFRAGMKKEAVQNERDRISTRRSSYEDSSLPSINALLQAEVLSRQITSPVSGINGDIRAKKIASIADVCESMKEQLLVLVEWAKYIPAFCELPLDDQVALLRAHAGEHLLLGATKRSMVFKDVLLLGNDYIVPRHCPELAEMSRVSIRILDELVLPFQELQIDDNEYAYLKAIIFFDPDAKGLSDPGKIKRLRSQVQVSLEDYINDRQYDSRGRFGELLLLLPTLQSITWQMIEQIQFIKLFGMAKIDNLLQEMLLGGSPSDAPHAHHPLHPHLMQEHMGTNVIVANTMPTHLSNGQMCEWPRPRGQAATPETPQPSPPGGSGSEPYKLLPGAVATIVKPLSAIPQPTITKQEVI
Beta2AR agonist – beta2AR agonists driving receptor internalization, primary screen, cell-based, FAP fluorogen, flow cytometry; response, % (no concentration beside the values); hit rate 0.43% among 340,000; Beta-2 adrenergic receptor (Homo sapiens), P07550; AID 504454, 2011; Am2.2-beta2AR cells; reference of the scale not given here;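 active = response above a set limit, near 3 SD of response in nonfluorescent compounds, cut at about 42% in these data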;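 also: stock transfer was 100 nL into about 11 µL; a reference agonist was the positive control; negative values mostly stem from fluorescent compounds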
ALR H2O2 inh – inhibitors of human ALR sulfhydryl oxidase, primary screen, biochemical, H2O2 detection, HRP-luminol luminescence, single point | FAD-linked sulfhydryl oxidase ALR (Homo sapiens), P55789 | purified ALR, DTT oxidation | inhibition, % (concentration not given with the values) | hit rate 3.8% among 290,000 | AID 485317, 2010;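 active = mean and each replicate at 75% or more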;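 also: stock transfer was 7.5 nL into about 7.5 µL; 0% = neutral wells and 100% = wells with inactivated enzyme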
FGF22 binding – binders of human FGF22 protein, primary screen, FGF22 synaptogenesis inhibitor project, biophysical, thermal shift, single point; Fibroblast growth factor 22 (Homo sapiens), Q9HCT0; recombinant FGF22 thermal shift, SYPRO orange fluorescence; percent of sucrose octasulfate shift, DMSO zero; calls only at 9.99 µM; hit rate 1.5% among 340,000;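 active = melting point raised past a set limit in the mean and every replicate; three in four hits are not shown here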
Target sequence (Q9HCT0 whole entry, looked up): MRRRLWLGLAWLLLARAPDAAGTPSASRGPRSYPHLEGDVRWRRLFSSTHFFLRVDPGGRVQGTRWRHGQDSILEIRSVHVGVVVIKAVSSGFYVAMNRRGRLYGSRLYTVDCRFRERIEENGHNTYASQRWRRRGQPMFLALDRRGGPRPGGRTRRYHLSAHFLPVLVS
UCH37 DUB inh – inhibitors of human UCH37 deubiquitinase, primary screen, biochemical, Ub-AMC cleavage, fluorescence | Ubiquitin carboxyl-terminal hydrolase isozyme L5 (Homo sapiens), Q9Y5K5 | purified proteasome/UCH37 | inhibition, % (test concentration not listed) | hit rate 0.33% among 330,000 | AID 588478, 2011;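 active = mean of two replicates above 20%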;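 also: 0% = compound-free wells with enzyme and 100% = wells lacking proteasome; stock transfer was 100 nL into about 20 µL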
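System: Proteasome-associated human UCH37 deubiquitinase; Input: 0.15 nM proteasome in added enzyme buffer; Also added: Ub-AMC substrate from 1 µM stock; Incubation: 30 min compound-proteasome preincubation then 25 min substrate reaction, room temperature; Detection: fluorescence, ex 355 nm, em 460 nm; Read-out: % inhibition of Ub-AMC cleavage fluorescence; Benchmarks: no-proteasome and no-compound wells.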
* marks the source's active call; other numbers are inactive results; i = inactive; · = not tested or not shown; & = joins results of further samples. This is a subset; count on the stated rates, not on these rows.

nr	SMILES	LANA-H2B inh	Ecoli growth	HNF4A DNA FP	Beta2AR agonist
1	COc1cc2c(c(OC)c1OC)-c1c(cc3c(c1OC)OCO3)[C@@H](OC(C)=O)[C@H](C)[C@H](C)C2	7.5	·	0.1	4
2	CCN(CC)CCOC(=O)C1(c2ccccc2)CCCC1	36*	0.69	2.1	-3
3	CC(C(=O)O)c1ccc(C(=O)c2cccs2)cc1 (centres undefined)	2.3	0.68	-0.6	2
4	CC[N+](C)(CC)CCOC(=O)C(O)(c1ccccc1)C1CCCCC1 (centres undefined)	0.2	0.68	0.3	-5
5	O=C(CCNNC(=O)c1ccncc1)NCc1ccccc1	0.6&2.0	0.68	7.1	-2
6	CCCn1cnc2c1c(=O)n(CCCCC(C)=O)c(=O)n2C	0.6	0.65	7.3	-3
7	NC(=O)c1cccc(-c2cc(Nc3ccc(OC(F)(F)F)cc3)ncn2)c1	0.4	0.65	4.7	0
8	CCOc1ccc(NC(=O)Cn2cc(C(=O)c3ccco3)c3ccccc32)cc1	-1.7	0.63	0.9	-10

nr	ALR H2O2 inh	FGF22 binding	UCH37 DUB inh
1	-10	i	-0.7
2	1	·	2.3
3	-2	i	1.7
4	1	i	2.7
5	-2	i	1.3
6	1	i	1.8
7	4	i	-2.9
8	-7	·	-5.5

Random excerpt: 4 entries already listed
nr	SMILES	LANA-H2B inh	Ecoli growth	HNF4A DNA FP	Beta2AR agonist
2	CCN(CC)CCOC(=O)C1(c2ccccc2)CCCC1	36*	0.69	2.1	-3
8	CCOc1ccc(NC(=O)Cn2cc(C(=O)c3ccco3)c3ccccc32)cc1	-1.7	0.63	0.9	-10
3	CC(C(=O)O)c1ccc(C(=O)c2cccs2)cc1 (centres undefined)	2.3	0.68	-0.6	2
1	COc1cc2c(c(OC)c1OC)-c1c(cc3c(c1OC)OCO3)[C@@H](OC(C)=O)[C@H](C)[C@H](C)C2	7.5	·	0.1	4

nr	ALR H2O2 inh	FGF22 binding	UCH37 DUB inh
2	1	·	2.3
8	-7	·	-5.5
3	-2	i	1.7
1	-10	i	-0.7

Carrying on.
nr	SMILES	LANA-H2B inh	Ecoli growth	HNF4A DNA FP	Beta2AR agonist
9	Oc1ccc(/C=C/c2cc(O)cc(O)c2)cc1	-16	·	-1.1	8
10	CC(COc1ccccc1)NC(C)C(O)c1ccc(O)cc1 (centres undefined)	-1.2&8.3	0.66	0.3	-3
11	Cc1nc2ccccn2c(=O)c1CCN1CCC(C(=O)c2ccc(F)cc2)CC1	-2.8&-2.5	0.71	-0.9	-14
12	COC(=O)c1ccc(O)cc1	·	0.67	-1.2	-10
13	CC(=O)OCC1=C[C@@H]2OC(=O)C3=CO[C@@H](O[C@@H]4O[C@H](CO)[C@@H](O)[C@H](O)[C@H]4O)[C@H]1[C@@H]32	-0.8	·	-0.2	-3
14	C=CC1=C(C(=O)O)N2C(=O)[C@@H](NC(=O)/C(=N\O)c3csc(N)n3)[C@H]2SC1 (stereo in doubt)	-0.6	·	-11	2
15	Cc1cc(-c2ccccc2)nnc1NCCN1CCOCC1	0.4&3.7	0.63	-0.9	-1
16	CCCNC(C)C(=O)Nc1c(C)csc1C(=O)OC (centres undefined)	-8.8	0.65	1.3	13

nr	ALR H2O2 inh	FGF22 binding	UCH37 DUB inh
9	79*	i	1.2
10	22	i	3.1
11	7	i	-2.6
12	·	i	-0.7
13	-4	i	5.6
14	-13	i	·
15	·	i	1.2
16	3	i	-0.6

Next section; it opens with the four that closed the last part.
nr	SMILES	LANA-H2B inh	Ecoli growth	HNF4A DNA FP	Beta2AR agonist
13	CC(=O)OCC1=C[C@@H]2OC(=O)C3=CO[C@@H](O[C@@H]4O[C@H](CO)[C@@H](O)[C@H](O)[C@H]4O)[C@H]1[C@@H]32	-0.8	·	-0.2	-3
14	C=CC1=C(C(=O)O)N2C(=O)[C@@H](NC(=O)/C(=N\O)c3csc(N)n3)[C@H]2SC1 (stereo in doubt)	-0.6	·	-11	2
15	Cc1cc(-c2ccccc2)nnc1NCCN1CCOCC1	0.4&3.7	0.63	-0.9	-1
16	CCCNC(C)C(=O)Nc1c(C)csc1C(=O)OC (centres undefined)	-8.8	0.65	1.3	13
17	CN1CCN(CCC(=O)N2c3ccccc3Sc3ccc(C(F)(F)F)cc32)CC1	0.5	0.68	-0.3	5
18	CN(C)CCOC(C)(c1ccccc1)c1ccccn1 (centres undefined)	-8.8	0.7	1.8	-4
19	CC(=O)NC(Cc1ccccc1)C(=O)O (centres undefined)	2.3	0.67	2.5	1
20	Cc1c(NC(=O)c2cccnc2)c(=O)n(-c2ccccc2)n1C	-2.4	0.69	1.8	-3
21	CCCCCCO	-32	0.68	1.5	-4
22	CC(=O)Nc1ccc(C(=O)O)cc1	·	0.8	7.3	5
23	O=C(CCN1CCC(c2ccccc2)C1)c1ccc2c(c1)OCCO2 (centres undefined)	-4.3	0.62	-1.1	3
24	CCN(CC)CCNC(=O)c1cc(Cl)c(N)cc1OC	-6.3	0.73	-1.6	-3

nr	ALR H2O2 inh	FGF22 binding	UCH37 DUB inh
13	-4	i	5.6
14	-13	i	·
15	·	i	1.2
16	3	i	-0.6
17	21	·	6.6
18	-7	i	1.4
19	-9	i	0.3
20	-5	i	5.9
21	-8	i	4.0
22	·	i	2.1
23	·	i	2.3
24	-18	i	-0.1

Looked up above.
cpd 5 in UCH37 DUB inh → 1.3
cpd 21 in Beta2AR agonist → -4

Next section
nr	SMILES	LANA-H2B inh	Ecoli growth	HNF4A DNA FP	Beta2AR agonist
25	CCOc1ccc(C(=O)OCCN(CC)CC)cc1	2.1	0.78	-1.5	9
26	O=C(NCCc1c[nH]c2ccccc12)c1cccnc1	-20	0.71	-2.8	-14
27	COc1ccc(C(=O)CC(=O)c2ccc(C(C)(C)C)cc2)cc1	·	·	1.0	3
28	Cc1cc(Nc2cc(N3CCN(C)CC3)nc(Sc3ccc(NC(=O)C4CC4)cc3)n2)n[nH]1	1.7	0.8	3.7	5
29	CCC(C)n1ncn(-c2ccc(N3CCN(c4ccc(OCC5COC(Cn6cncn6)(c6ccc(Cl)cc6Cl)O5)cc4)CC3)cc2)c1=O (centres undefined)	-6.9	0.74	-3.3	15
30	CN1CCN(C(c2ccccc2)c2ccccc2)CC1	0.1	0.68	3.3	3
31	CC12CCC(CC1)C(C)(C)O2	0.5	0.7	-0.8	-4
32	COc1ccc(C(=O)NCc2ccc(OCCN(C)C)cc2)cc1OC	-0.7	0.67	4.4	5

nr	ALR H2O2 inh	FGF22 binding	UCH37 DUB inh
25	6	·	2.4
26	·	i	2.4
27	·	i	·
28	72	i	2.3
29	-9	i	0.5
30	-2	i	0.0
31	-4	i	5.9
32	1	i	0.2

(cont.)
nr	SMILES	LANA-H2B inh	Ecoli growth	HNF4A DNA FP	Beta2AR agonist
33	CCOc1ccccc1C(N)=O	·	0.66	1.0	-7
34	OC(C#CCN1CCCC1)(c1ccccc1)c1ccccc1	5.8	0.7	-2.4	-5
35	C1CCC(C(CC2CCCCN2)C2CCCCC2)CC1 (centres undefined)	-13&1.7	0.61&0.64	3.3&-2.2	34&39
36	COc1ccccc1N1CCN(CCCNc2cc(=O)n(C)c(=O)n2C)CC1	2.9	·	0.7	·

nr	ALR H2O2 inh	FGF22 binding	UCH37 DUB inh
33	·	i	0.7
34	-5	i	-0.6
35	·	i	3.7&0.0
36	17	i	·
